miR-21 reporter: miR-21 reporter, rising signal | HeLa miR-21 FLuc reporter, luciferase, 48 h | Potency, µM (top dose mostly 38.3 µM), inactives show at the highest dose reporter change, positive = more light | 340,000 tested, under 10 active | AID 2288; active = well fitted rising curve with a large enough effect; inconclusive = small, poorly fitted or top-dose-only effect; inactive = no such curve, though single readings can be large or run the other way;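 note: % of control where 0% means no effect; miR-21 action dims this reporter so a rising signal means less miR-21 action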
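Using DMEM plus 10% FBS, HeLa miR-21-FLuc cells are incubated with test compounds (final up to about 40uM) for 48 hours; firefly luciferase signal is then imaged following reagent-mediated lysis.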
GLA inh pH 4.5: alpha-galactosidase A (human) inhibition, pH 4.5 | 230,000 tested, under 10 active | purified enzyme, 4-MU-alpha-Gal fluorescence, pH 4.5 | P06280 | activity change, negative = inhibition, % at 105 µM | AID 1467; inconclusive = small, poorly fitted or top-dose-only inhibition, or a rising curve; inactive = flat fitted curve, though single readings scatter; no compound was filed as active;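 note: 0% = full activity with enzyme and -100% = basal without enzyme; dose as in the result columns while the protocol names 77 µM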
Target sequence (P06280 whole entry, looked up): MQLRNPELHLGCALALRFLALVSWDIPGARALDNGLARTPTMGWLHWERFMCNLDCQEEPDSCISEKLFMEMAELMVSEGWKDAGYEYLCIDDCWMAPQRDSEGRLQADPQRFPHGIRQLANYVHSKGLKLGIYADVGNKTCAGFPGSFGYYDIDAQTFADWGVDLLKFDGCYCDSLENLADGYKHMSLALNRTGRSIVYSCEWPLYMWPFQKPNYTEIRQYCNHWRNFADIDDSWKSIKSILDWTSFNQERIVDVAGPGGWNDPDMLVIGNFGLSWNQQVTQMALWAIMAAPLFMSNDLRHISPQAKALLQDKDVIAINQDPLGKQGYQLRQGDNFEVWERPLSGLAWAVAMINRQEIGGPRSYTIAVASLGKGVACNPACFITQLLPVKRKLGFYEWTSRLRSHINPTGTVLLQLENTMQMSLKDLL
Rango release inh: prevents RanGTP from dissociating the Rango-importin beta complex. Biochemical FRET Rango-importin beta, RanGTP-induced dissociation. Potency, µM (series often up to 46.1 µM), for the others: top-dose activity change, negative = inhibition. 0.071% of 340,000 active; active means falling FRET ratio curve, often poorly fitted, with flat reads before Ran was added; inconclusive means other falling curves, or compound fluorescence or quenching; inactive means flat or rising ratio curve;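 note: potency is the fitted concentration of half-maximal effect; % of control where 0% means no effect; nearly all actives have a fitted effect of over 45% in size; -100% = wells without RanGTP and RCC1; the record marks most hits as doubtful in a second field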
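Rango FRET biosensor (snurportin-1 IBB flanked by N-terminal EYFP and C-terminal CFP10) at 0.1 uM, with 0.25 uM importin beta in PBS, 1mM DTT, 0.02% Tween-20, 0.1% BSA. 0.6 uM Ran, 2mM GTP and 0.2 uM RCC1 were then added for 45 min at room temperature. Inhibition read as loss of FRET rise.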
Rango-impB inh: Rango-importin beta binding inhibition | Potency, µM (titrated, usually from 92.2 µM), inactives show at the highest dose inhibition of complex formation | AID 540263 | Rango CFP/YFP FRET sensor + importin beta, 45 min | 0.031% of 340,000 active; active = rising FRET ratio curve, often small or poorly fitted; inconclusive = mostly compound fluorescence or quenching in the first reads; inactive = flat curves in all reads;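 note: potency is the fitted concentration of half-maximal effect; 0% = DMSO wells and 100% = buffer wells lacking importin beta; nearly all actives have a fitted effect of over 15% in size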
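Inhibition scored from the CFP 486 nm/YFP 530 nm FRET ratio 45 min after adding 0.125 microM importin beta to 50 nM Rango biosensor preincubated 5 min with compound (room temperature, PBS with DTT, Tween-20, BSA). No-importin wells as positive control.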
* = called active by the depositor; ? = inconclusive; / = not tested or not shown; & = joins results of further samples; [ ] = another dose, or the depositor's remark. These rows are one share of the data; count on the stated rates, not on these rows.

SMILES	miR-21 reporter	GLA inh pH 4.5	Rango release inh	Rango-impB inh
Cc1ccccc1-c1nc(CN2CCCC(C(=O)NCc3cccnc3)C2)c(C)o1 (stereo unspecified)	4.1%	3.0	4.8%	1.6%
O=C(CCC(=O)N1CCN(Cc2ccc(F)cc2)CC1)Nc1nnc(C2CCCCC2)s1	-2.7%	/	?	-3.7%
CC(C)c1nc2ccccc2n1CC(O)COC1CCCCC1 (stereo unspecified)	-2.9%	-6.2	1.0%	-0.9%
C=CCN(CC=C)Cc1c(C)[nH]c2ccc(C(=O)OCC)cc2c1=O	-6.3%	-5.9	3.5%	2.4%
COc1ccc(-c2csc3ncnc(NCCO)c23)cc1	22.2%	/	-0.5%	4.2%
Cc1ccc2cc(CN(Cc3ccco3)C(=O)c3ccccc3)c(=O)[nH]c2c1C	-6.5%	4.6	2.3%	-2.5%
O=C(CC1CCCCC1)NCc1cn2ccsc2n1	-2.3%	-3.3	-2.2%	-1.3%
O=Cc1ccc(N2CCCCCC2)cc1	2.8%	4.1	10.0%	-0.5%
CC1CCC(NC(=O)C2CCC(CNS(=O)(=O)c3ccccc3)CC2)CC1 (stereo unspecified)	-8.9%	/	-3.0%	-0.5%
CCC(=O)N(CCC(c1ccc(C)cc1)c1ccco1)Cc1ccco1 (stereo unspecified)	0.7%	-9.3	-9.1%	?
Cc1ccc(NC(=O)c2ncn(CCCN3CCN(c4ncccn4)CC3)n2)cc1C	/	/	-5.5%	0.3%
Cc1ccc(S(=O)(=O)N(CC(=O)Nc2ccccc2C(=O)O)c2ccccc2C)cc1	-3.3%	4.3	9.2%	-2.8%
O=C(COC(=O)c1ccccn1)NCc1cccs1	/	/	8.0%	8.7%
O=C(NNS(=O)(=O)c1ccc(Cl)cc1)c1ccc(S(=O)(=O)N2CCCCC2)cc1	-5.8%	-17.7	12.4%	0.5%
Cc1cc(/C=N/n2cnnc2)c(C)n1-c1ccc(OCc2ccc(Cl)cc2Cl)cc1	29.7%	1.4	5.6%	4.8%
CCOC(=O)CNS(=O)(=O)CCN1C(=O)c2ccccc2C1=O	-4.3%	-1.3	0.1%	-0.8%
Cc1cc2c(cc1S(=O)(=O)N1CCN(c3ccccc3)CC1)OCCN2C	-16.1%	/	11.4%	-0.1%
COc1cccc(/C=C/C(=O)Nc2cccc(C(C)=O)c2)c1OC	-22.7%	0.5	-5.8%	0.1%
COCCN(CCOC)S(=O)(=O)c1ccc(C(=O)Nc2ccc(S(=O)(=O)Nc3nccc(C)n3)cc2)cc1	-10.1%	3.4	-11.2%	-3.2%
Cc1cc(C)n(-c2ncnc3ccccc23)n1	-0.6%	4.3[21.1 µM]	12.4%	-2.0%
Cc1cc[n+](CC(=O)c2ccc(NC(=O)c3ccccc3)cc2)cc1	-1.2%	-2.4[21.1 µM]	4.3%	-0.9%
Cc1ccccc1NC(=O)CSc1ccsc1[N+](=O)[O-]	6.9%	-1.6	0.1%	-1.0%
COc1ccc(NC(=O)N(C)C[C@H]2Oc3ccc(NC(=O)C4CCCCC4)cc3C(=O)N([C@H](C)CO)C[C@@H]2C)cc1	/	/	16.4%	0.5%
COC(=O)c1cc(OC)c(OC)cc1NC(=O)c1ccc(OC)c(OC)c1	-8.9%	0.4	-10.2%	2.6%
CCN(CC)CCOCCOC(=O)C1(c2ccccc2)CCCC1	/	0.8&1.7&-6.5&-1.8	17.2%	-1.4%
O=C(Nc1ccc(-n2nncc2-c2ccco2)cc1)c1ccc(F)cc1	-9.7%	7.3	-10.9%	2.2%
COc1ccc(C2CC(c3ccc4ccccc4c3)=NN2C(=O)CN2C(=O)CCC2=O)cc1 (stereo unspecified)	-1.6%	-3.0	14.9%	2.8%
c1ccc(-c2cc3n(c2)CCc2ccccc2-3)cc1	-15.9%	5.8	-18.4%	-0.7%
COc1ccc(CN2CCNC(=O)C2CC(=O)NCCc2c[nH]c3ccccc23)c(OC)c1 (stereo unspecified)	-4.1%	10.0	-0.1%	-3.4%
CC(=O)c1c(C)nn(CC(O)COc2ccc3c(c2)CCC3)c1C (stereo unspecified)	9.6%	6.5	-12.5%	1.8%
O=C(Cc1ccccc1)NC(Nc1ccccc1)C(Cl)(Cl)Cl (stereo unspecified)	0.5%	4.1	9.4%	2.0%
NC(=O)C1CCN(c2oc(-c3ccccc3F)nc2S(=O)(=O)c2ccc(Cl)cc2)CC1	-5.0%	-0.7	?	-3.0%
CCCCC1CCC(C(=O)N(C)CC(=O)Nc2cccc(F)c2)CC1 (stereo unspecified)	2.6%	/	-28.4%	?
Cc1ccc(S(=O)(=O)N(CC(=O)N/N=C\c2cccs2)c2cccc3cccnc23)cc1	-3.1%	1.7	-3.0%	0.2%
NC(=O)CCCc1nc(-c2ccccc2)no1	-9.6%	-8.4	0.1%	3.5%
CC1=C(C(=O)Nc2ccccc2)C2(CCCCC2)C(C(N)=O)C(=S)N1 (stereo unspecified)	2.4%	-6.4	4.7%	0.9%

Some of the entries above in a different format.
CC1CCC(NC(=O)C2CCC(CNS(=O)(=O)c3ccccc3)CC2)CC1 (stereo unspecified)
- miR-21 reporter: -8.9%
- GLA inh pH 4.5: /
- Rango release inh: -3.0%
- Rango-impB inh: -0.5%

COc1ccc(NC(=O)N(C)C[C@H]2Oc3ccc(NC(=O)C4CCCCC4)cc3C(=O)N([C@H](C)CO)C[C@@H]2C)cc1
- miR-21 reporter: /
- GLA inh pH 4.5: /
- Rango release inh: 16.4%
- Rango-impB inh: 0.5%

(more compounds)
SMILES	miR-21 reporter	GLA inh pH 4.5	Rango release inh	Rango-impB inh
COc1cc(C(=O)OCC(=O)N2CCC(C)CC2)cc2c1OCCO2	/	/	1.0%	?
COc1ccc(-n2nnc3c(=O)n(CC(=O)NCC4CCCO4)cnc32)cc1 (stereo unspecified)	-0.3%	2.1	0.9%	0.8%
Cc1ccccc1OCCn1nc(C(=O)O)c2ccccc2c1=O	-12.5%	4.1	3.5%	3.5%
Cc1occc1-c1nnc(SCC(=O)c2ccc(F)cc2)o1	-41.6%	-5.3	-2.7%	0.5%
Cc1ccc(NC(=O)c2ccco2)c(NC(=O)c2ccccc2C)c1	-2.0%	/	-5.9%	0.5%
O=C(NC1CCCCC1)NC1CCN(S(=O)(=O)c2ccc3c(c2)OCCO3)CC1	-4.2%	1.2	0.0%	3.6%
Cc1ccc(S(=O)(=O)c2c(C)cc(C)nc2Cl)cc1	-1.1%	-6.7	9.1%	0.4%
COc1ccc(N(S(=O)(=O)c2ccccc2)S(=O)(=O)c2ccccc2)c(N)c1	/	/	-4.4%	2.3%
O=c1[nH]c(C2CCCN(S(=O)(=O)c3ccccc3)C2)nc2c1nnn2Cc1ccccc1F (stereo unspecified)	-11.4%	-5.5	-14.6%	0.0%
c1ccc(-c2nnc(OCc3cccnc3)c3ccccc23)cc1	-20.5%	-4.1	6.2%	0.2%
CCCNC(=O)c1n[nH]c2c1CC(C(C)(C)CC)CC2 (stereo unspecified)	/	/	12.7%	0.2%
CCc1ccc2[nH]c(=O)c(C(c3nnnn3CCOC)N3CCN(c4ccccc4)CC3)cc2c1 (stereo unspecified)	1.2%	4.5	6.9%	-0.6%
O=C(C(c1ccccc1)c1ccccc1)N1CCN(Cc2ccco2)CC1	-5.9%	-0.5	10.6%	-0.5%
Cc1c(C(=O)OCC(C)C)[nH]c2c1C(=O)CC(c1cccs1)C2 (stereo unspecified)	17.8%	-6.9	0.3%	-0.3%
CCOC(=O)CC1=C(C(=O)OCC)C(c2cccs2)C(C#N)=C(N)O1 (stereo unspecified)	-0.3%	0.5	-0.2%	0.6%
O=S(=O)(c1cccc(S(=O)(=O)N2CCN(c3ncccn3)CC2)c1)N1CCOCC1	-4.9%	-2.9	2.3%	0.3%
O=S1(=O)N=C(N/N=C/c2ccccn2)c2ccccc21	-6.4%	-1.7	27.4%	-0.1%
COc1ccc2[nH]c(=O)c(CN(C3CCCCC3)C(c3nnnn3Cc3ccco3)C(C)C)cc2c1 (stereo unspecified)	-11.0%	3.2	?	?
O=C(NC(=S)Nc1nc(-c2cccc([N+](=O)[O-])c2)cs1)c1ccccc1Cl	-2.7%	-7.7	9.2%	-1.4%
Cc1ccc(NC(=O)CN(C)C2CCCCC2)cc1Br	-3.2%	-7.7	7.6%	0.0%
Cc1c(O)ccc2c(O)c(NC(=O)c3ccc4c(c3)CCC(C)(C)O4)c(=O)oc12	1.9%	-10.4	10.9%	?
NC(=O)c1ccc(NC(=O)COC(=O)c2ccccc2Nc2ccccc2)cc1	-3.6%	-2.5	9.0%	0.5%
O=C(COC(=O)c1ccco1)NC12CC3CC(CC(C3)C1)C2	/	/	0.7%	-2.9%
Cc1ccc(SCC(=O)Nc2cccc(C)c2)cc1	-17.3%	-6.5	10.0%	-0.3%
Cn1c(=O)c2c(nc(CN3CCOCC3)n2CCN2CCOCC2)n(C)c1=O	-6.3%	-1.2	-2.2%	0.6%
O=C(O)CCCNc1n[nH]c(=O)[nH]c1=O	-0.8%	-5.7	-17.4%	-2.5%
C=CCc1cc(Cl)ccc1OCCCNC(C)C	-14.1%	-2.4	-9.6%	0.2%
O=C(NCc1ccccn1)c1ccccc1-c1ccccc1	-5.2%	3.5	1.2%	-2.3%
CCCC(O)(c1ccc(OC)cc1)C(CN1CCOCC1)c1ccccc1 (stereo unspecified)	3.4%	-5.4	-11.8%	-2.4%
O=C1CSC(=S)N1c1cccc(F)c1	1.2%	/	7.4%	0.2%
COCCn1c(SCC(=O)NCC2CCCO2)nc2c(c1=O)SCC2 (stereo unspecified)	-0.3%	/	-13.8%	-1.2%
COc1cc(NC(=O)[C@H](C)NC(=O)N2CCn3c2nc2ccccc23)cc(OC)c1	8.3%	/	0.1%	0.0%
CC(C)CCNC(=O)NC(=O)CN1C(=O)NC2(CCCCC2)C1=O	-9.1%	-6.7	?	?
CCOCCCNC(=O)C(NC(=O)c1ccc(=O)[nH]c1)c1ccc(Cl)cc1 (stereo unspecified)	-0.6%	-11.9	5.4%	-0.6%
COc1ccc(NC(=O)COc2ccc(/C=N/O)cc2OC)cc1	-67.5%	12.1	-18.5%	-2.8%
Cc1cc(N=NC(=O)c2ccccc2)ccc1O	-0.1%	-0.4	1.3%	0.0%
O=C(Cn1cc(SCc2ccccc2Cl)c2ccccc21)N1CCOCC1	-55.2%	1.9	1.3%	2.2%
Cc1cc(C)cc(Nc2ccc(C(=O)O)cc2[N+](=O)[O-])c1	-4.5%	/	0.2%	-0.5%
CCC(C)NS(=O)(=O)c1ccc(NC(=O)CCC2CCCCC2)cc1 (stereo unspecified)	-4.4%	-0.4	-0.2%	-4.1%
CCOc1ncccc1C(=O)OCC(=O)N1CCN(S(=O)(=O)c2ccccc2)CC1	-0.6%	2.6	0.7%	1.3%
Cc1c(Cl)cccc1NC(=O)CC(NCCN1CCOCC1)C(=O)O (stereo unspecified)	/	/	-6.3%	-2.0%
COc1ccc(NC(=O)c2c(-c3ccccc3)noc2C)c(OC)c1	1.3%	-4.0	21.0%	1.2%
COc1ccc(CNC(=O)c2ccc3c(=O)n4c(nc3c2)CCCCC4)cc1OC	/	/	-0.9%	?
Cc1ccc(-c2nc(C)sc2CC(=O)Nc2nnc(C)s2)cc1	2.9%	3.3	-11.1%	-1.2%
CN(Cc1nc(-c2cnccn2)no1)CC1CCN(Cc2ccccc2)CC1	-6.0%	0.5	1.7%	1.5%
Cc1nonc1OCCNCc1c(C(=O)N2CCCCCCC2)nc2ccc(Cl)cn12	-10.1%	-15.3	0.5%	?
COc1ccccc1NC(=O)C1CC(C(C)C)OC1=O (stereo unspecified)	/	/	-3.0%	1.7%
CN(/N=C/c1cc(Br)cc(Br)c1O)c1cccc(C(F)(F)F)n1	22.7%	/	-22.9%	?
Cc1cccc(NC(=O)C(C)C(=O)c2ccccc2)c1 (stereo unspecified)	-5.9%	/	2.7%	1.1%
COc1ccccc1N(CC(=O)NC1CCCC1)C(=O)CCC(=O)Nc1ccccn1	-1.0%	/	-11.7%	0.0%
CC(C)OP(=O)(c1ccc(N(C)C)cc1)C(O)c1ccccc1F (stereo unspecified)	-6.5%	3.1	0.4%	-3.9%
Cc1cccc(C(=O)N/N=C/c2ccc(OC3CSC3)cc2)c1	-14.7%	-8.1	0.1%	-2.7%
CC(=O)NC(Cc1ccccc1)C(=O)NC1CCN(c2ncccc2[N+](=O)[O-])CC1 (stereo unspecified)	-8.9%	2.9	11.1%	-1.8%
